From PubChem
D2 potentiator: Beta-Arrestin HTS for Positive Allosteric Modulators of the Human D2 Dopamine Receptor: Potentiators; AID 624464, 2012; D(2) dopamine receptor (Homo sapiens), P14416; DiscoveRx D2 beta-arrestin cells, luminescence, 90 min; 100% = 57 uM dopamine signal; hit rate 0.23% among 360,000; potentiation, % (no concentration beside the values); active = potentiation of 50% or more; inconclusive = 30% to 50%; inactive = 30% or less;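 further: compound concentration not given in the record; tested on top of an EC20 dose of dopamine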
Target sequence (P14416 whole entry, looked up): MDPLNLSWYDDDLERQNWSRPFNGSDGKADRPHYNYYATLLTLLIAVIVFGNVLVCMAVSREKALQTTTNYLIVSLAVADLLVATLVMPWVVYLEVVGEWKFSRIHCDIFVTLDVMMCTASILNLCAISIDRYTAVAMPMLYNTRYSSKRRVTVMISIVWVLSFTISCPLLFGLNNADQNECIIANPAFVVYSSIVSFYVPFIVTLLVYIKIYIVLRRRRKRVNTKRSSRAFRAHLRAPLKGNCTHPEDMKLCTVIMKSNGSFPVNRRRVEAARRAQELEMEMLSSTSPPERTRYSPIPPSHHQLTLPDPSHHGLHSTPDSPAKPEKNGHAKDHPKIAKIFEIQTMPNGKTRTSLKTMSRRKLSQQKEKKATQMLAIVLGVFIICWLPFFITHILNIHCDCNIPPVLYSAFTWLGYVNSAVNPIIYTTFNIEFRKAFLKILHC
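PathHunter D2 cells, attached overnight at 37 deg C, received compound in DMSO plus dopamine at EC20 (50 nM final) for 90 min at 37 deg C. Beta-arrestin recruitment was read as luminescence after 1 h with detection reagent at ambient temperature.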
Menin-MLL FL inh: qHTS Assay for Inhibitors Targeting the Menin-MLL Interaction in MLL Related Leukemias: Competition With Fluorescein Labeled MLL-derived Peptide. Fluorescence polarization, fluorescein-MLL peptide displacement from menin. FP activity change, % at 61.4 µM. 290,000 tested, under 10 active; inconclusive = falling polarisation curve, or a change in total fluorescence; inactive = total fluorescence flat and polarisation flat or rising; no compound was filed as active; the % refers to the polarisation; negative = inhibition;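 further: % of control where 0% means no effect; inhibitors lower the polarisation; unlabelled MLL peptide was the positive control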
ClpP mod: qHTS Assay for Activators of ClpP. ATP-dependent Clp protease proteolytic subunit (Bacillus subtilis (strain 168)), P80244. purified B. subtilis ClpP, FRET peptide cleavage, 20 min. Potency, µM (highest dose often 57.5 µM), for inactives: at the top dose activity change, negative = active. hit rate 1.9% among 340,000. AID 651965, 2013; active = well fitted falling curve with a large enough effect; inconclusive = small, poorly fitted or top-dose-only effect; inactive = no such curve, though single readings can be large or run the other way; further: potency means the concentration at half of the fitted maximal effect; the source files actives as falling curves though it sought activators and does not explain the sign; nearly all actives have a fitted effect of over 65% in size; many hits overshoot -100%
Target sequence (P80244 whole entry, looked up): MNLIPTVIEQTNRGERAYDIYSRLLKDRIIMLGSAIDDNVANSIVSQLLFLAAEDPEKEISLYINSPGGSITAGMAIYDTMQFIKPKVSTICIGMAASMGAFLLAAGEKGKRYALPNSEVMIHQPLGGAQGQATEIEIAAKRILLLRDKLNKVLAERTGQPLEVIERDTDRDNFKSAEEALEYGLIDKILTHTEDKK
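Purified B. subtilis ClpP, 10 microg/mL final in Tris/HCl pH8 with KCl, BSA, glycerol and Tween-20, cleaved an Abz/nitrotyrosine-quenched decapeptide. Fluorescence (ex 320, em 430) was read at 0 and 20 min at room temperature. Delta was normalized to 5.8 microM ADEP and DMSO/no-enzyme controls.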
TRPV1 potentiator: HTS Assay for Compounds that Act as Potentiators of the Vanilloid Receptor 1. Transient receptor potential cation channel subfamily V member 1 (Homo sapiens), Q8NER1. TRPV1-expressing cells, Fluo-8 calcium influx, capsaicin EC20 potentiation; host cell line not named in the record; control for the full effect not named in the record. potentiation, % at 8.33 µM. hit rate 0.02% among 320,000; active means potentiation above 80%; inconclusive means 30% to 80%; inactive means below 30%; further: 0% is about no effect
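Cells expressing TRPV1 were dye-loaded with Fluo-8 and read kinetically: 10 s baseline, 3 min after compound (agonist portion), then 2 min after EC20 capsaicin (allosteric enhancer portion). Calcium-bound dye fluorescence at 480/520 nm.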
gsp antagonist: qHTS for Antagonists of gsp, the Etiologic Mutation Responsible for Fibrous Dysplasia/McCune-Albright Syndrome: qHTS; AID 624288, 2012; hit rate 0.4% among 340,000; Potency, µM (doses to about 76.9 µM), for the others: top-dose activity change, negative = inhibition, hits mostly inhibitors; gsp-mutant cells, cAMP HTRF, 30 min; control for the full effect not named in the record; active = falling curve of any shape with a large fitted effect; inconclusive = falling curve, mostly with a smaller effect; inactive = flat or rising curve; cell line not stated here;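 further: intracellular cAMP measured with PDE inhibitor Ro 20-1724 present during compound exposure; potency means the concentration at half of the fitted maximal effect; on the % scale 0 is the no-effect control and ±100 the full control effect; nearly all actives have a fitted effect of over 65% in size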
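Cells in G418 medium, seeded 16-24 h, 37C; buffer exchange to DPBS + 1 mM CaCl2, 0.5 mM MgCl2, 0.05% BSA; cpds in DMSO + […] (300 uM stock), 30 min 37C; HTRF cAMP detection.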
Sfp inh: qHTS Assay for Inhibitors of Bacillus subtilis Sfp phosphopantetheinyl transferase (PPTase) | hit rate 3.5% among 310,000 | 4'-phosphopantetheinyl transferase ffp (Bacillus subtilis), Q9F4F7 | Potency, µM, inactives show max response, negative = inhibition, most hits filed as inhibitors | Biochemical Sfp PPTase activity, qHTS | AID 1490, 2009; active means well fitted inhibition curve with a large enough effect; inconclusive means small, poorly fitted or top-dose-only effect, or another doubt; inactive means no such curve, though single readings can be large or run the other way;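 further: the enzyme is Sfp with the accession as filed and its product quenches rhodamine fluorescence; potency means the concentration at half of the fitted maximal effect; 0% = enzyme reaction without inhibitor and -100% = no enzyme wells; top concentration of the series not given in the record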
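Fluorescence-quenching assay with 15 nM Sfp, 5 uM rhodamine-CoA and 12.5 uM BHQ-2-labelled ybbR peptide in pH 7.6 Hepes/MgCl2 buffer. Enzyme was pre-incubated with compound for 15 min at room temperature. Rate was taken from the 30-min fluorescence change (525/598 nm).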
gsp agonist: qHTS for Agonist of gsp, the Etiologic Mutation Responsible for Fibrous Dysplasia/McCune-Albright Syndrome: qHTS; Potency, µM (doses to about 76.9 µM), inactives show top-dose activation (cAMP increase), usual class: activators; gsp mutant cells, cAMP HTRF, 30 min; control for the full effect not named in the record; AID 624287, 2012; hit rate 0.13% among 340,000; active = well fitted activation curve with a large enough effect; inconclusive = small, poorly fitted or top-dose-only effect, or another doubt; inactive = no such curve, though single readings can be large or run the other way; cell line not stated here;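 further: phosphodiesterase inhibitor Ro 20-1724 added with compounds to block cAMP breakdown; potency means the concentration at half of the fitted maximal effect; nearly all actives have a fitted effect of over 60% in size; about a fifth of the inactives were tested at one dose only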
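Cells in DMEM/10% FBS with G418 were pretreated with compounds in DMSO plus […] (300 uM stock) for 30 min at 37C. cAMP was measured by HTRF (cAMP-d2 plus anti-cAMP antibody-K) after 30 min at room temperature.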
Numbers without * were called inactive; ? = inconclusive; nt = not tested or not shown; [ ] = another dose, or the depositor's remark.

SMILES	D2 potentiator	Menin-MLL FL inh	ClpP mod	TRPV1 potentiator	gsp antagonist	Sfp inh	gsp agonist
O=C(COC(=O)c1cccnc1Cl)NCCC1=CCCCC1	-7.1	0.2	15.8µM*	-34.0	6.9%	12.1%	-0.4%[15.4 µM]
CC1CC(C)CN(C(=O)COC(=O)/C=C/c2ccco2)C1 (stereo not given)	-2.2	nt	-1.2%	nt	11.2%	nt	-10.6%
O=C(Nc1ccccc1C(=O)O)c1ccc(NC(=O)C2CCCCC2)cc1	-3.9	-7.2	1.2%	6.8	31.6µM*	23.5%	6.7%[15.4 µM]
Cc1cc(C)c2c(n1)SCC(=O)N2CC(=O)Nc1ccc(Br)c(C)c1	-8.0	0.0	-0.1%	4.9	-8.6%	5.1%	55.5%
CCN(CC)C(=O)CSc1nc2cc3c(cc2c(=O)n1Cc1ccc(OC)cc1)OCO3	-2.1	2.0	-1.3%	-26.6	-62.6%	13.1%	3.5%[15.4 µM]
CC(=O)c1cnc2c(-c3ccc(Cl)cc3)c(C)nn2c1C	-14.7	2.7	-0.6%	?	1.8%	-2.4%	16.9%
Cc1noc(C)c1S(=O)(=O)N(C)C[C@H]1OCCCC[C@@H](C)Oc2ccc(NS(=O)(=O)c3cn(C)cn3)cc2C(=O)N([C@H](C)CO)C[C@@H]1C	2.1	nt	-2.3%	nt	nt	nt	1.2%
O=C(Nc1nc(-c2ccc(F)cc2)cs1)c1cccc(N2C(=O)CCC2=O)c1	-5.2	6.7	2.1%	5.2	?	2.5%	-33.6%[inhibitor]
O=C(CSCc1cccs1)N1CCCC1	14.0	6.1	0.8%	-30.4	10.8%	-2.8%	-3.6%
Oc1ccc(-n2nnnc2SCc2ccccc2Br)cc1	2.1	3.3	nt	12.4	-12.8%	9.9%	10.0%
COc1ccc(S(=O)(=O)Nc2c(C(=O)O)[nH]c3ccc(OC)cc23)cc1	-5.2	0.9	3.2%	0.5	7.7%	-29.9%	-86.7%[inhibitor]
O=C(O)CSc1nnc(-c2cccc(S(=O)(=O)N3CCOCC3)c2)n1-c1cccc(Cl)c1	1.7	-0.6	nt	4.1	-2.5%	4.5%	-2.6%[15.4 µM]
Cc1ccc(CN2C(=O)C(CC(C)C)Nc3ncnc(N4CCN(c5ccccn5)CC4)c32)cc1 (stereo not given)	-26.3	nt	?	-15.5	-3.3%	nt	-74.8%[inhibitor]
Cc1ccccc1N=C(NOCc1ccc(Cl)cc1Cl)c1nonc1N	-16.6	-1.0	-0.9%	11.6	10.3%	-9.1%	-16.6%
COc1ccc(NC(=O)c2ccc(-n3cncn3)c([N+](=O)[O-])c2)cc1	10.1	1.0	nt	-19.3	-6.8%	14.2%	-12.0%
C=CCn1cnc2c(c1=O)c1nc3ccccc3nc1n2/N=C/c1cccc(OC)c1	-3.9	-0.9	-0.1%	-10.7	0.3%	-20.2%	-81.4%[inhibitor]
CC(=O)NC(c1ccccc1)c1c(O)ccc2ccccc12 (stereo not given)	-7.8	-4.8	nt	10.6	-4.3%	-4.6%	20.2%
CC1CCN(C(=O)C2CCN(S(=O)(=O)c3cccnc3)CC2)CC1	5.9	1.6	0.5%	-4.5	-0.9%	13.8%	-9.3%
CCc1c(C)sc(NC(=O)c2cccs2)c1C(=O)OC(C)C	-15.7	3.8	?	-27.4	6.8%	?	-0.6%
c1ccc(-c2ccc(-c3nc(-c4ccncc4)no3)cc2)cc1	-10.3	-1.6	-6.0%	12.2	5.7%	9.1%	26.7%
COc1ccc(S(=O)(=O)Nc2ccccc2C(=O)NC2CC2)cc1NC(C)=O	-2.7	nt	3.9%	14.0	-0.2%	nt	14.6%
C=CCn1cc(C(=O)OCC)c(=O)c2ccc(F)cc21	-3.0	6.5	0.6%	-7.8	-1.6%	-2.0%	-6.4%
CSCCC(NS(=O)(=O)c1ccc(Cl)cc1)C(=O)OCC(=O)N(C(C)C)C(C)C (stereo not given)	1.3	1.2	-3.2%	-1.1	1.2%	-1.3%	3.2%
CN(C)CC(C)(C)CN=Cc1c(O)[nH]c2ccccc12	-15.0	0.7	-1.7%	4.0	7.6%	15.1%	-4.8%
COC(=O)c1nnn(CC(=O)NC(=O)Nc2cccc(Cl)c2C)c1C(=O)OC	-2.8	0.3	-0.5%	3.1	-4.5%	-2.2%	?
New compounds follow
SMILES	D2 potentiator	Menin-MLL FL inh	ClpP mod	TRPV1 potentiator	gsp antagonist	Sfp inh	gsp agonist
C=CCn1c2ccccc2c2nnc(SCC(=O)O)nc21	-7.4	0.0	-0.5%	25.3	4.5%	-1.2%	3.1%[15.4 µM]
CS(=O)(=O)Nc1ccc(C(=O)Nc2ccc3c(c2)OCCO3)cc1	-7.9	-4.4	0.9%	-7.9	-7.1%	7.8%	-21.0%
O=C(CCc1ccccc1)NNC(=O)COc1ccc(Cl)cc1	6.1	nt	0.0%	1.7	11.7%	9.4%	7.8%
O=C(NN=Cc1ccccc1O)c1cccc([N+](=O)[O-])c1	-6.1	nt	nt	nt	3.4%	nt	-2.1%
CC(=O)Nc1ccc(OS(=O)(=O)c2ccc(Cl)cc2)cc1	-8.4	?	nt	12.1	0.9%	13.3%	-2.4%[15.4 µM]
COc1ccc2c(c1)C=C(C(=O)OCc1cccnc1)CO2	-6.4	2.4	nt	-15.5	-7.0%	-22.2%	-14.8%[15.4 µM]
Cc1cccnc1Nc1nc(-c2ccc(O)c(O)c2)cs1	10.7	-1.9	0.7%	3.9	5.5%	50.1µM*	-21.9%
CC1(CCOCc2ccccc2)NC(=O)NC1=O (stereo not given)	0.3	nt	nt	nt	-4.3%	nt	17.4%
O=C1CN(C(=O)COc2ccccc2F)c2ccccc2N1	-5.7	0.7	-13.1%	4.8	9.7%	-12.5%	6.5%
O=C(CN1CCCC1)N/N=C/c1ccc(-c2cccc(Cl)c2)o1	-27.0	1.4	-7.0%	23.3	3.7%	-17.6%	27.9%
Cc1nn(CCCC(=O)NCc2ccccc2)c(=O)c2nccn12	-1.5	-0.7	-2.6%	-15.0	9.1%	-0.3%	?
CC(Oc1ccc(F)cc1)C(=O)NN (stereo not given)	-3.8	nt	-0.9%	-27.0	3.6%	1.9%	-17.7%
Cc1cc(NS(=O)(=O)c2ccc(NC(=O)C3CCCCC3)cc2)no1	-0.5	3.9	nt	28.2	-9.0%	18.9%	?
O=C(NCC1CC1)c1onc(CSc2ccccc2)c1C(=O)NCC1CC1	-7.4	nt	2.6%	nt	-9.6%	nt	?
CC(=O)N(C1=C(N)C(=O)c2ccccc2C1=O)C(C)C	3.8	-1.0	nt	2.2	5.3%	?	4.4%
C=CCNc1nc2c(c(=O)n(C)c(=O)n2C)n1CC(=C)C	-3.5	-1.4	1.5%	-0.8	-0.6%	14.9%	?
CN(C)c1ccc(C(CNC(=O)c2ccc(C#N)cc2)c2c[nH]c3ccccc23)cc1 (stereo not given)	2.1	2.1	0.7%	3.4	-19.9%	16.0%	-4.3%
O=C(NC1CCCC1)C(c1ccccn1)N(C(=O)c1csnn1)c1ccccc1Cl (stereo not given)	-3.2	-5.3	nt	2.4	6.8%	-7.3%	3.3%
Cn1cnc([N+](=O)[O-])c1Nc1ccc(O)cc1	-16.5	-4.4	0.1%	-6.1	11.1%	?	-21.5%
CC1CC(C)CN(S(=O)(=O)N2CCC(C(=O)NCCC3=CCCCC3)CC2)C1 (stereo not given)	-8.9	4.0	-0.5%	-10.2	7.5%	-2.6%	-88.3%[inhibitor]
O=C(Cn1nnc2ccccc21)Nc1ccc([N+](=O)[O-])cc1	-8.0	-0.4	nt	-0.5	2.3%	8.6%	22.6%[15.4 µM]
CC(C)(C)n1nc2c(c1NC(=O)Cc1ccc(Cl)cc1)CS(=O)(=O)C2	22.4	nt	0.9%	3.1	-9.5%	7.8%	-21.2%
Cc1cccc(OCC(=O)NCC(c2cccs2)N2CCOCC2)c1 (stereo not given)	-0.7	nt	-3.1%	3.3	-3.2%	nt	-2.3%
COc1ccc(C2=NOC3(CC(=O)N(c4ccc(C)cc4)C3=O)C2)c(OC)c1 (stereo not given)	-0.5	0.7	12.3%	-2.0	11.2%	6.5%	-35.3%[inhibitor]
CCC(C)NS(=O)(=O)c1ccc(S(=O)(=O)N(CC(=O)Nc2ccccc2)CC2CCCO2)cc1 (stereo not given)	-5.0	-1.1	-1.8%	0.6	-16.6%	23.7%	-34.9%[inhibitor]
The list continues.
SMILES	D2 potentiator	Menin-MLL FL inh	ClpP mod	TRPV1 potentiator	gsp antagonist	Sfp inh	gsp agonist
O=C(O)c1ccc(Nc2ncc([N+](=O)[O-])cc2[N+](=O)[O-])cc1	9.1	-2.9	nt	2.3	-10.9%	-19.9%	35.4%[15.4 µM]
CCN(CC)CCN1CCn2c3c(c4cc(C)ccc42)CCCC31 (stereo not given)	-10.5	nt	-6.8%	19.7	4.8%	-2.5%	-3.8%
CC(=O)NC1=NC(=O)C(C)S1 (stereo not given)	-8.8	6.7	-0.7%	-18.7	7.5%	-15.3%	8.3%
Cc1cc(N(CC(=O)NC2CC2)S(C)(=O)=O)ccc1Br	-18.1	-0.4	1.4%	0.3	3.5%	-5.5%	-26.8%
COc1cc(NC(=O)CCn2c(=O)[nH]c3ccsc3c2=O)cc(OC)c1	1.4	6.6	-1.0%	4.1	-1.8%	-2.7%	11.9%
COc1ccc(-c2nc(N)n(C(=O)c3ccc(C)cc3)n2)cc1	11.9	-0.4	-4.1%	7.0	-10.3%	26.6%	2.1%
COc1ccc(-c2ccnc(SCC(=O)N3CCN(c4ccccc4)CC3)n2)cc1	-12.5	3.5	-0.8%	6.0	4.8%	28.5%	-1.3%
O=c1c(Cl)c(N2CCNCC2)cnn1C12CC3CC(CC(C3)C1)C2	-4.2	-1.3	0.0%	-6.7	17.4%	2.4%	8.0%[15.4 µM]
